# Screening results: PubChem, several laboratories
# Autofluor counter: compound fluorescence in toxin protease inhibitor counterscreen; compound autofluorescence counterscreen, microsphere flow cytometry; hits give high values; fluorescence intensity (test concentration not listed); hit rate 3.1% among 360,000; AID 624483;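 active = at least 3 SD above the mean of all compounds, about 16000 in these data; inconclusive = too few beads counted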;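 note: 100 nL of 1 mM stock went into each well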
# PrP UTR inh: suppresses PrP 5' UTR mRNA reporter expression | cell-based PrP 5' UTR mRNA reporter, plate reader | inhibition, % (no concentration beside the values) | hit rate 0.35% among 340,000;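 active = every replicate at 50% or more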;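 note: 0 = median of the neutral control wells; tested in H4 reporter cells; numbers are from one replicate; inactives centre near -14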
# Mtb hypoxia rep: inhibitors of hypoxia-regulated fluorescent reporter in Mycobacterium tuberculosis; M. tuberculosis hypoxia-regulated fluorescent reporter, fluorescence; hit rate 0.1% among 300,000; fluorescence inhibition, % (no concentration beside the values);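 active = 35 to 45% if threefold the growth effect, above 45% if 1.5-fold the growth effect; inactive = the rest, general growth blockers included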;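 note: wells of about 50 µL received 100 nL stock; 0% = vehicle wells and 100% = reference inhibitor wells; whole bacteria with a GFP reporter of the hypoxia response; strong numbers were not always called active; many hits fall short of the cut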
# BJeLR viability: kills HRASV12-expressing BJeLR cells; AID 1554; BJeLR (HRASV12) viability, CellTiter-Glo ATP luminescence, 48 h; reference of the scale not given here; inhibition, % (no concentration beside the values); hit rate 0.17% among 300,000;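 active = replicate mean above 50%; inconclusive = above 50% but judged a plate artefact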;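 note: 50 nL library stock added to about 25 µL; numbers are from one replicate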
# Sa RN4220 lethal: kills Staphylococcus aureus RN4220; S. aureus RN4220 growth, OD600, 16 h; hit rate 0.33% among 330,000; inhibition, % (test concentration not listed); AID 1259311;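 active = z-score of -3 or lower and OD600 up to 0.18 on both plates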;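 note: plate controls were untreated cells for no effect and reference antibiotic for full effect; stock transfer was 100 nL into about 80 µL; one replicate is shown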
# Sa ugtP lethal: compounds lethal to S. aureus RN4220 ugtP deletion mutant; hit rate 0.54% among 330,000; AID 1259309; OD600 growth, 16 h; some inactives read as strong as hits; growth inhibition, % (no concentration beside the values);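 active = z-score under -3 and OD600 up to 0.15 on both plates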;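 note: plate controls were untreated wells for no effect and antibiotic for full effect; wells of about 80 µL received 100 nL stock; the first replicate is given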
# Mtb hypoxia rep growth: also measured in Mtb hypoxia rep; calls as there; growth inhibition, %; measured here: M. tuberculosis growth (absorbance);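 0% = vehicle and 100% = reference antibiotic; read after six days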
# Active calls of the source: *; ? = inconclusive; . = no result given.
Structure,Autofluor counter,PrP UTR inh,Mtb hypoxia rep,Mtb hypoxia rep growth,BJeLR viability,Sa RN4220 lethal,Sa ugtP lethal
C/C(CC(=O)Nc1cc(Cl)ccc1C)=N\NC(N)=O,5077,-32,.,.,-6,.,.
Cc1ccc2c(c1)N(CC(=O)NCCCN1CC(C)CC(C)C1)C(=O)c1cccnc1O2 (stereo not given),5442,-16,.,.,-7,3.9,1
N#Cc1ccsc1NC(=O)C1=COCCO1,6487,-4,4,1,.,5.1,-3
O=C(CSc1cccc[n+]1[O-])CSc1cccc[n+]1[O-],2475,-24,.,.,0,6.4,13
CCC(=O)N1CCN(c2ccc(Cl)cc2NC(=O)Cc2ccccc2)CC1,5743,-4,.,.,.,4.2,-8
CCOC(=O)C1=C(N)OC2=C(C(=O)CC(C)(C)C2)C1c1ccoc1 (stereo not given),4817,-13,.,.,1,-1.7,-1
Cc1ccc(C(=O)Nc2cccc(C(=O)N3CCOCC3)c2)cc1Cl,4921,-24,15,9,-2,3.3,4
Cc1ccnc2c(N3C(=O)C4C5C=CC(C5)C4C3=O)cccc12 (stereo not given),5906,-8,.,.,-3,-0.6,-4
CCOc1ccc(-c2c(C)sc3nc[nH]c(=O)c23)cc1,3564,-47,7,9,2,3.2,4
COCCN(CCOC)c1nc(-c2ccc(C)cc2)nc2ccccc12,4396,-21,3,19,-7,2.2,14
O=[N+]([O-])c1ccc(NC(=S)NCCc2ccc(F)cc2)cc1,2555,-19,-4,2,-15,69,65
CCCNC(=O)NC(C)C12CC3CC(CC(C3)C1)C2 (stereo not given),5471,-8,.,.,0,8.0,-2

# Additional compounds.
Structure,Autofluor counter,PrP UTR inh,Mtb hypoxia rep,Mtb hypoxia rep growth,BJeLR viability,Sa RN4220 lethal,Sa ugtP lethal
O=C(CCCSc1nc2ccccc2[nH]1)N1CCN(c2ccccc2)CC1,20365*,-5,1,6,-5,2.6,6
COc1cccc(C(c2c(C)[nH]n(-c3ccccc3)c2=O)c2c(C)[nH]n(-c3ccccc3)c2=O)c1OC,1974,-22,6,14,-1,-0.7,0
Cn1c(C(=O)OC(C(=O)NC2CCCCC2)c2ccncc2)cc2sccc21 (stereo not given),5209,-9,-1,1,5,1.4,-2
Cc1ccc(C(=O)NNC(=S)NC(=O)c2ccco2)cc1,4064,6,-8,15,-11,40,37
CCC1CCCCN1CCCNC(=O)CCCOc1cc(=O)n(C)c2ccccc12 (stereo not given),2086,-27,-1,4,1,6.8,2
COc1ccc(C=C2SC(=O)NC2=O)cc1,.,.,4,13,.,1.7,44
CC(=O)c1ccc(-c2ccc(C(=O)NC3CCCCCC3)o2)cc1,4518,-10,5,1,5,2.5,18
Cc1cnc([N+](=O)[O-])n1CCOC(=O)NC(=O)c1cccc(F)c1,4124,-32,8,7,2,2.0,1
FC(F)(F)c1nc2ncc(Cl)cc2[nH]1,20866*,-1,-2,9,7,23,6
CN(CCc1ccccc1)C(=O)c1ccc(NC(=O)Cc2ccc(NC(=O)C3CCN(C(=O)C4CCCC4)CC3)cc2)cc1,2121,-11,-7,-4,.,3.0,3
O=C(c1ccco1)N1CCN(Cc2c(F)cccc2Cl)CC1,3582,-51,5,7,24,3.0,3
O=C(Nc1cc2c3c(c1)CC(=O)N3CCC2)c1c(F)cccc1F,?,8,6,-6,6,3.8,3

# Additional structures.
Structure,Autofluor counter,PrP UTR inh,Mtb hypoxia rep,Mtb hypoxia rep growth,BJeLR viability,Sa RN4220 lethal,Sa ugtP lethal
Cc1ccc(SCc2nnc(NC(=O)c3ccccc3)s2)cc1,4321,-12,6,-2,5,4.5,7
CC(=O)N(c1ccccc1)C1SC(=O)N(c2ccccc2)C1=O (stereo not given),9446,-6,9,-1,-7,3.8,20
COc1c(C)cc(C(=O)C2CCCN(C(=O)c3ccc4[nH]ccc4c3)C2)cc1C (stereo not given),4384,78*,1,7,-1,2.4,6
CCc1cccc2c(C(=O)COC(=O)C3=NNC(=O)CC3)c[nH]c12,1977,-11,13,6,-4,2.0,-1
COc1ccc(/C=C/C(=O)OCC(=O)Nc2cccc(S(=O)(=O)NC3=NCCCCC3)c2)cc1,3089,-21,-2,6,.,0.5,6
CN(CCc1cnn(C)c1)Cc1cn(C)nc1-c1ccccc1F,7407,-9,3,-1,-4,-3.0,-2
Cc1ccc(C(O)CN2C3=NCCN3c3ccccc32)cc1 (stereo not given),3445,-14,5,4,0,-4.7,-8
Fc1ccccc1CNC(=S)Nc1ccc(Cl)cc1,2185,-37,15,10,-6,-3.5,-1
CCOC(=O)C1=C(C)NC2=C(C(=O)CCC2)C1c1coc2ccccc2c1=O (stereo not given),8441,-14,-3,11,5,5.1,-3
Cc1ccc(COc2ccc(S(=O)(=O)N3CCCC3)cc2C(N)=O)cc1,3107,-21,-4,-7,-3,3.1,2
O=[N+]([O-])c1ccc(N2CCc3ccccc3C2)nc1,3031,-27,12,5,0,2.5,-3
Cc1ccc(-n2c(SCC(=O)OC(C)C)nnc2-c2cnccn2)cc1,9056,-32,12,14,7,5.0,1

# Remaining list, next part.
Structure,Autofluor counter,PrP UTR inh,Mtb hypoxia rep,Mtb hypoxia rep growth,BJeLR viability,Sa RN4220 lethal,Sa ugtP lethal
COc1ccc2c(c1)cc(C(=O)N[C@@H](Cc1ccccc1)C(=O)N[C@@H](C)C(=O)O)n2C,3062,.,-11,2,-1,2.6,4
CN1C(=O)NC(c2cccc(O)c2)C(C(=O)c2cccs2)C1(O)C(F)(F)F (stereo not given),6917,-12,-8,-2,-6,0.8,-18
CN(C)CCCC(C)(O)C(C)(C)c1ccccc1 (stereo not given),11036,-28,7,1,-6,1.9,7
C=CCn1c(C)cc(C(=O)CN2C(=O)c3ccccc3C2=O)c1C,7750,-22,11,4,9,-1.5,6
CCCCC(=O)Nc1cccc(-c2csc(-c3ccccc3)n2)c1,1918,-6,-5,-3,-6,-9.6,-1
COc1ccc(OCC(=O)NCCc2c[nH]c3ccccc23)cc1,4306,-7,10,8,-11,3.4,-3
COc1cc(CN2CC(=O)N(c3ccc(C)cc3)C2=S)cc(OC)c1OC,2483,-12,-6,-2,12,11,0
CCCNC(=O)c1ccccc1NC(=O)c1ccccc1SC,1988,-19,7,1,-1,2.0,2
O=C(CN1CCN(Cc2ccccc2)CC1)NCCNc1ccc([N+](=O)[O-])cn1,4281,-8,13,2,8,0.4,2
COC(=O)NN=C1CCCc2c(C)cc(C)cc21,.,.,9,8,.,7.1,2
CSc1ccccc1NC(=S)NC1CCCCC1,4660,-23,-1,-4,6,-3.0,1
O=C(CN1C(=O)c2ccccc2S1(=O)=O)NCc1ccco1,4368,-32,2,7,-4,5.4,7

# Next part; it opens with the three that closed the last part.
Structure,Autofluor counter,PrP UTR inh,Mtb hypoxia rep,Mtb hypoxia rep growth,BJeLR viability,Sa RN4220 lethal,Sa ugtP lethal
COC(=O)NN=C1CCCc2c(C)cc(C)cc21,.,.,9,8,.,7.1,2
CSc1ccccc1NC(=S)NC1CCCCC1,4660,-23,-1,-4,6,-3.0,1
O=C(CN1C(=O)c2ccccc2S1(=O)=O)NCc1ccco1,4368,-32,2,7,-4,5.4,7
COc1ccc(Cn2c(-c3ccc(C)cc3)nc3c(c(=O)c4ccccc4n3C)c2=O)cc1,2478,-5,-17,-3,15,0.9,-3
NC(N)=NCCCC(NC(=O)c1ccccc1)C(=O)Nc1ccc2ccccc2c1 (stereo not given),6073,4,-3,1,.,-0.6,-1
CCOc1ccc2oc(C(=O)NCC(C)(C)CN(C)C)c(C)c2c1,4821,-14,4,3,12,1.8,-3
Cc1nn(CC(=O)NCc2cc3ccccc3[nH]2)c(C)c1[N+](=O)[O-],2544,-10,3,0,10,0.3,0
COC(=O)c1ccc(NCC(=O)N2CCCCCC2)cc1,.,.,14,2,-7,6.5,8
COc1ccc(C)cc1Nc1nc(C)nc2sc(C)cc12,4230,-24,3,-2,1,0.7,15
COc1ccc(C=NNC(=O)c2ccc3nc[nH]c3c2)cc1,.,.,18,4,.,0.3,12
COc1ccc(OC)c(Nc2nc3ccccc3n3cnnc23)c1,4381,13,4,4,-6,4.0,-4
CC(C)N(Cc1nc(-c2ccc3c(c2)OCO3)no1)CC1CCC(=O)N1 (stereo not given),4018,39,2,8,-16,6.0,2
Cc1ccsc1C=Nn1c(C2CCCCC2)n[nH]c1=S,.,.,0,-2,.,4.6,-9
COc1ccc(S(=O)(=O)NN=C2CCCCC2)cc1,10962,-18,2,5,.,0.6,-2
Cn1c(NCc2ccccc2)nc2c1c(=O)n(Cc1ccc(Br)cc1)c(=O)n2C,3167,-13,1,5,8,-17,-9

# Next structures:
Structure,Autofluor counter,PrP UTR inh,Mtb hypoxia rep,Mtb hypoxia rep growth,BJeLR viability,Sa RN4220 lethal,Sa ugtP lethal
COc1ccc(Cl)cc1NC(=S)N1CCC(c2ccc(C)cc2)C1 (stereo not given),3220,-5,6,10,1,1.2,8
CC(C)Cn1c(CN(Cc2ccccc2)Cc2ccccc2)nc2c1c(=O)n(C)c(=O)n2C,5909,-9,0,8,.,-16,-18
CCc1cccc(CC)c1NC(=S)NCC(c1cccnc1)N(C)C (stereo not given),2180,1,11,5,5,2.2,0
O=C(C1=CC(c2ccccc2)CC(OCc2ccc(CO)cc2)O1)N1CCCCCCC1 (stereo not given),.,.,9,6,.,3.3,7
CCCCn1c(N)c(N(CCOC)C(=O)CCCc2nc3ccccc3s2)c(=O)[nH]c1=O,?,-14,-7,-10,-4,-1.7,1
Nc1n[nH]c2cc(=O)n(-c3cccc(C(F)(F)F)c3)nc12,2480,-24,8,3,5,3.0,-1
CCNC(=S)Nc1cc(Cl)ccc1Oc1ccccc1,2062,-12,9,4,9,-0.6,14
O=c1cc(Cn2nnc(-c3ccc(Cl)cc3)n2)nc2sccn12,9694,-18,7,4,-10,2.6,-3
CCn1c(COc2ccc(OC)cc2)nnc1SCC(=O)Nc1cc(OC)ccc1OC,6354,11,9,6,-9,4.2,8
Cc1ccc(NC(=O)COC(=O)Cn2cnc3ccccc32)c(C)c1,3850,-77,2,2,.,0.7,1
O=C(COC(=O)Cc1c[nH]c2ccccc12)NCCc1ccccc1,5852,-24,4,2,-2,3.1,5
Cc1ccc2nc(NC(=O)C3CCCN(S(=O)(=O)c4cccc5nsnc45)C3)sc2c1 (stereo not given),4653,-5,.,.,8,-1.2,0

# Profiles as entered above:
# Shown for O=C(COC(=O)Cc1c[nH]c2ccccc12)NCCc1ccccc1 : Autofluor counter = 5852; PrP UTR inh = -24; Mtb hypoxia rep = 4; Mtb hypoxia rep growth = 2; BJeLR viability = -2; Sa RN4220 lethal = 3.1; Sa ugtP lethal = 5
# Shown for CCc1cccc(CC)c1NC(=S)NCC(c1cccnc1)N(C)C (stereo not given) : Autofluor counter = 2180; PrP UTR inh = 1; Mtb hypoxia rep = 11; Mtb hypoxia rep growth = 5; BJeLR viability = 5; Sa RN4220 lethal = 2.2; Sa ugtP lethal = 0

# Remaining list, next part
Structure,Autofluor counter,PrP UTR inh,Mtb hypoxia rep,Mtb hypoxia rep growth,BJeLR viability,Sa RN4220 lethal,Sa ugtP lethal
CCN1CCN(C(c2nnnn2Cc2ccc3c(c2)OCO3)C(C)C)CC1 (stereo not given),9185,-5,8,9,6,1.1,-1
COc1ccc2[nH]c(O)c(N=NC(=O)Cc3cccs3)c2c1,3718,-17,-2,-1,2,8.1,-2
CCCNC(=O)N1C2CCC1C(C(=O)OC)=C(c1ccc(F)cc1F)C2 (stereo not given),.,.,8,10,.,2.5,5
CN(C1CCCCC1)S(=O)(=O)c1ccc(NC(=O)c2ccco2)cc1,4406,-5,.,.,2,-1.3,-16
CCCc1nnc(NC(=O)CN2C(=O)c3ccccc3C2=O)s1,2886,-97,.,.,-3,-2.9,1
Cc1c(C(=O)Nc2ccccc2)cc(-c2ccccc2)n1CCCN1CCOCC1,3319,.,-13,-1,-3,1.7,-3
COc1ccc(Nc2nc(NCC3CCCO3)nc(N)c2[N+](=O)[O-])cc1 (stereo not given),3914,-3,-4,-7,-8,4.4,-6
Cc1ccc(S(=O)(=O)NC2CC2)cc1,3237,-8,8,5,1,4.3,8
O=C(Nc1ccc2c(c1)CN(Cc1ccccc1O)CC2)C1CCCO1 (stereo not given),6451,-16,17,-1,3,1.1,11
O=C(NCCCCNC(=O)C(F)(F)F)C(F)(F)F,4702,-8,11,-1,-6,6.0,5
O=C(O)C1=CCCc2ccc(F)cc21,3725,-23,6,4,.,5.0,0
CCCCN(C(=O)c1c(CC)noc1C)c1c(N)n(CC(C)C)c(=O)[nH]c1=O,4018,-24,3,-3,.,4.3,7
CN(Cc1ccccc1)C(=O)CCc1ccccc1,2479,1,.,.,-6,3.3,5
